Compound activity from PubChem BioAssay.
VDR inhibitor – inhibitors of human vitamin D receptor. P11473. VDR-SRC2-3 peptide fluorescence polarization, 2 h. Potency, µM, without a hit: max response, negative = inhibition, most hits filed as inhibitors. 0.93% of 400,000 active. AID 504847; active = well fitted inhibition curve with a large enough effect; inconclusive = small, poorly fitted or top-dose-only effect, or another doubt; inactive = no such curve, though single readings can be large or run the other way; also: series mostly up to about 120 µM
Target sequence (P11473 whole entry, looked up): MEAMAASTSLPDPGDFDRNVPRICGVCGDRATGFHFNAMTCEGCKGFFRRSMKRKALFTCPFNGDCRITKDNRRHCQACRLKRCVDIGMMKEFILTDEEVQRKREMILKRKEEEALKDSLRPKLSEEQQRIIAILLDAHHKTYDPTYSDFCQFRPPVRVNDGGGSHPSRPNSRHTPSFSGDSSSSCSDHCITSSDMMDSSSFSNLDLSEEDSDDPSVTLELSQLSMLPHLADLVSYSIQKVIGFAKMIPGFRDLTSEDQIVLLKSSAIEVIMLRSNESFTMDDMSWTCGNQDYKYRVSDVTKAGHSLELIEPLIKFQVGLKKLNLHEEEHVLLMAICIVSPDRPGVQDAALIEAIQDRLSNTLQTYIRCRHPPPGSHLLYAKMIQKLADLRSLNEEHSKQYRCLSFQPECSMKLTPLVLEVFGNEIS
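Fluorescence polarization assay of small-molecule disruption of VDR binding to coregulator peptide SRC2-3. Compounds and controls pin-transferred, then read after 2 h incubation at ambient room temperature.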
* marks the source's active call; other numbers are inactive results; ? = inconclusive; [ ] = dose if it differs, or a comment. % is scaled to controls: 0 for no effect and ±100 for the full control effect; potency is read from the fitted curve at half-maximal effect.

SMILES	VDR inhibitor
CC(=O)c1ccc(NC(=O)C2CCCN2S(=O)(=O)c2cccc3cccnc23)cc1 (stereo not drawn)	-7%
COc1ccc(CC(=O)NCC(=O)Nc2ccccc2Br)cc1	-1%
Cc1cccc(C(=O)N2CCc3cc(CNC(=O)c4ccc(Br)o4)ccc32)c1	15%
O=C(CCOc1ccccc1)Nc1ccnn1C1CCN(Cc2ccc(F)cc2)CC1	-5%
COCCn1nnnc1C(c1cccc(OC)c1OC)N1CCN(C(=O)c2ccco2)CC1 (stereo not drawn)	4%
CC(C)Cn1c(=O)c(C(=O)Nc2cnccn2)c(O)c2ccccc21	16%
CC(C)Sc1nc(N2CCOCC2)c2c3c(sc2n1)COC(C)(C)C3	-14%
CCS(=O)(=O)Nc1ccc(-c2cn3ccsc3n2)cc1	0%
Cc1[nH]c2ccccc2c1C(=O)CN1C(=O)NC2(CC(C)CC(C)(C)C2)C1=O (stereo not drawn)	-12%
CCOc1ccc(-c2nc3scc(-c4cccs4)c3c(=O)[nH]2)cc1	11%
CCOc1ccc(CNC(=O)C2CCN(Cc3cc4ccccc4n3Cc3ccccc3C)CC2)cc1	13%
Cc1[nH]c2ccccc2c1C1(O)C(=O)N(Cc2ccccc2)c2ccc(Br)cc21 (stereo not drawn)	6%
Cc1cc(N2CCOCC2)nc2ccc(NC(=O)CCC(=O)N3CCN(c4ccccc4)CC3)cc12	-18%
Cc1noc(C)c1C(=O)Nc1ccc(-c2nnc3n2CCCCC3)cc1	1%
O=C(Nc1ccccn1)C1CCN(S(=O)(=O)c2cccs2)CC1	-6%
COc1ccccc1C(=O)Nc1cccc(C(=O)c2ccccc2)c1	-4%
Cc1nn(Cc2ccccc2Cl)c(C)c1C(=O)NCC(c1cccs1)N1CCOCC1 (stereo not drawn)	4%
CC(=O)Nc1ccc(S(=O)(=O)N(C)CC(=O)OCCOc2cccc(C)c2)cc1	-4%
O=C(CCOc1ccccc1)Nc1ccccc1F	-17%
Nn1c(SCC(=O)Nc2ccc(S(N)(=O)=O)cc2)nnc1C(F)(F)F	-8%
CC(=O)c1coc2ccc(OCCN3CCCCC3)cc12	-11%
Cc1cccc(N2CCN(C(=O)c3noc4c3CCCCC4)CC2)c1C	16%
O=C(Oc1ccc(/C=N/NC(=O)c2ccccn2)cc1)c1cccc(Br)c1	3%
CCCC[C@H](NC(C)=O)C(=O)N[C@H]1CC(=O)NCCCC[C@@H](C(N)=O)NC(=O)[C@H](Cc2c[nH]c3ccccc23)NC(=O)[C@H](CCCN=C(N)N)NC(=O)[C@@H](Cc2ccccc2)NC(=O)[C@H](Cc2cnc[nH]2)NC1=O	4%
O=C(NCCCc1ccccc1)c1c(O)nc2sccn2c1=O	11%
CC(=O)c1ccc(S(=O)(=O)N2CCN(CC#N)CC2)cc1	2%
COc1ccc(OCCNC(=O)c2ccccc2OCC(=O)N2CCCCC2)cc1	26%
COc1ccc(N2Cc3ccccc3C2=NC(=O)c2cncc(Br)c2)cc1	-12%
CCOc1ccc(NC(=O)CN(C)C(=O)CSCc2cccc(C)c2)cc1OCC	2%
Cc1c(NC(=O)CCC(=O)N2CCOCC2)c(=O)n(-c2ccccc2)n1C	3%
CCC(=NCCc1ccccc1)C1=C(O)CCC1=O	32%[activator]
Cc1ccc(C(=O)/C=C/c2cc(Br)cc(Br)c2O)o1	8.9µM*
CC(C)NC(=O)C(=O)NCCCN1CCOCC1	13%
N#Cc1ccc(C2=NC(C(F)(F)F)(C(F)(F)F)c3c(n(Cc4ccco4)c(=O)[nH]c3=O)N2)cc1	?
CN(CC(=O)Nc1ccccc1Cl)C(=O)c1cccc(S(=O)(=O)N2CCN(c3ccc(F)cc3)CC2)c1	22%
Nc1c(Cl)cc(Cl)cc1C(=O)OCC(=O)NC1CC1	11%
CCOC(=O)C(CC)(CCC(=O)O)c1csc(N)n1 (stereo not drawn)	7%
O=C(C1CCC(CNS(=O)(=O)c2cccc3cccnc23)CC1)N1CCCC1 (stereo not drawn)	-9%
COc1ccc2oc(C(=O)OCC(=O)N(Cc3ccccc3)C(C)(C)C)c(C)c2c1	2%
COc1ccc(-n2ccc(=O)c(C(=O)O)n2)c(OC)c1	0%
CC(=O)Nc1ccc(S(=O)(=O)NCC2CCC(C(=O)NCCC(C)C)CC2)cc1 (stereo not drawn)	4%
COC1=Cc2c(ccc3ccc(=O)oc23)OC1(C)C	4%
COC(=O)CCCC1=CC2=C(c3ccccc3)C(=O)C(C)(OC(=O)C3CCCC3)C(=O)C2=CO1 (stereo not drawn)	?
Cc1ccc(C(=O)C2CCN(CC(=O)NC3CCCC3)CC2)cc1	13%
Cc1nn(C(=O)c2ccco2)c(C)c1Sc1ccccc1	-2%
CC1(c2nnc(Cc3ccccc3)o2)CC(c2ccccc2F)=NO1 (stereo not drawn)	-11%
CCOc1ccc(NS(=O)(=O)c2csc(C(N)=O)c2)cc1	-11%
Cc1nn(CC(=O)N(C)C2CCC(C)CC2)c(C)c1S(=O)(=O)N(C)C (stereo not drawn)	-12%
Cc1ccc2c(c1)C(O)(CC(=O)/C=C/C=C/c1ccccc1)C(=O)N2 (stereo not drawn)	-20%
O=C(COc1cccnc1[N+](=O)[O-])NCCc1ccc(F)cc1	7%
CC(C)CC(COCc1ccc(C(F)(F)F)cc1)N1CCN(C(=O)c2ccc(C(F)(F)F)cc2)CCC1=O (stereo not drawn)	-22%
CCc1ccc(OC(=O)c2ccn(CC)n2)cc1	26%
Cc1cccc(-n2c(SCC(=O)NC3CCCC3)nnc2-c2ccoc2C)c1	6%
COC(=O)[C@]1(Cc2ccccc2)N[C@H](CN(C)C(=O)Nc2ccc(OC)cc2)[C@@H]2C(=O)N(Cc3ccccc3)C(=O)[C@@H]21	-24%
OC(COCCOc1ccc(Br)cc1)CN1CCCCC1 (stereo not drawn)	-14%
O=C(c1cc2ccccc2oc1=O)N(Cc1cccc(Br)c1)C1CCS(=O)(=O)C1 (stereo not drawn)	-10%
COc1ccccc1OCC(=O)NC1CCCCCCC1	-8%
O=C(NCCc1ccccc1)c1ccccc1NC(=O)C1CCCO1 (stereo not drawn)	-4%
O=C(CCN1CCN(c2ccccc2)CC1)Nc1ccc(Cl)cc1	-3%
O=C(COc1ccccc1F)OCC(=O)c1ccc([N+](=O)[O-])cc1	?

In another format: results already given.
| canonical_smiles | VDR inhibitor |
| --- | --- |
| Cc1ccc(C(=O)C2CCN(CC(=O)NC3CCCC3)CC2)cc1 | 13% |
| Cc1nn(C(=O)c2ccco2)c(C)c1Sc1ccccc1 | -2% |
| CC1(c2nnc(Cc3ccccc3)o2)CC(c2ccccc2F)=NO1 (stereo not drawn) | -11% |
| CCOc1ccc(NS(=O)(=O)c2csc(C(N)=O)c2)cc1 | -11% |
| Cc1nn(CC(=O)N(C)C2CCC(C)CC2)c(C)c1S(=O)(=O)N(C)C (stereo not drawn) | -12% |
| Cc1ccc2c(c1)C(O)(CC(=O)/C=C/C=C/c1ccccc1)C(=O)N2 (stereo not drawn) | -20% |
| O=C(COc1cccnc1[N+](=O)[O-])NCCc1ccc(F)cc1 | 7% |
| CC(C)CC(COCc1ccc(C(F)(F)F)cc1)N1CCN(C(=O)c2ccc(C(F)(F)F)cc2)CCC1=O (stereo not drawn) | -22% |
| CCc1ccc(OC(=O)c2ccn(CC)n2)cc1 | 26% |
| Cc1cccc(-n2c(SCC(=O)NC3CCCC3)nnc2-c2ccoc2C)c1 | 6% |
| COC(=O)[C@]1(Cc2ccccc2)N[C@H](CN(C)C(=O)Nc2ccc(OC)cc2)[C@@H]2C(=O)N(Cc3ccccc3)C(=O)[C@@H]21 | -24% |
| OC(COCCOc1ccc(Br)cc1)CN1CCCCC1 (stereo not drawn) | -14% |
| O=C(c1cc2ccccc2oc1=O)N(Cc1cccc(Br)c1)C1CCS(=O)(=O)C1 (stereo not drawn) | -10% |
| COc1ccccc1OCC(=O)NC1CCCCCCC1 | -8% |

The list continues:
SMILES	VDR inhibitor
CCN(Cc1nc(-c2cccc(C)c2)no1)S(=O)(=O)c1ccc(C)cc1	3%
CC1CCC(C(=O)NC(C(=O)NCc2ccccn2)C(C)C)CC1 (stereo not drawn)	-3%
O=C(CS(=O)CC(=O)N(CC(=O)NC1CCCC1)C1CCCCC1)Nc1ccc(F)cc1 (stereo not drawn)	4%
CCOC(=O)c1ccc2nc3c(cc2c1)CCS3	14%
O=C1C=C(NCCNc2c(F)c(F)c(CO)c(F)c2F)CCC1	13%
O=C(NCc1ccc2c(c1)OCO2)c1ccc2snnc2c1	4%
O=C(O)CCC(=O)N1N=C(c2c(-c3ccccc3)c3cc(Cl)ccc3[nH]c2=O)CC1c1cccs1 (stereo not drawn)	-15%
CC(C)(C)NC(=O)C1CCN(c2nc3ccccc3nc2C(F)(F)F)CC1	12%
CC(=O)c1cccc(NC(=S)NC(=O)c2ccc(C)cc2)c1	7%
C=CCC1Cc2c(Br)cccc2C(CC=C)N1 (stereo not drawn)	2%
COC(=O)c1cccc(NC(=S)N2CCOCC2)c1	-4%
CCOC(=O)Cc1csc(NC(=O)c2ccc(N3CCOCC3)cc2[N+](=O)[O-])n1	5%
CC(C)n1c(Nn2cnnc2)nc2ccccc21	-17%
O=C(O)c1ccc(Nc2ncnc3ccccc23)cc1	6%
CCC(C)(C)NC(=O)C(c1ccncc1)N(C(=O)c1sc(C)nc1C)c1ccc(C)cc1 (stereo not drawn)	-7%

VDR inhibitor, what is marked active above.
SMILES	VDR inhibitor
Cc1ccc(C(=O)/C=C/c2cc(Br)cc(Br)c2O)o1	8.9µM*

(more compounds)
SMILES	VDR inhibitor
COCCCNC(=O)Cn1c(=O)n(-c2ccc(Cl)cc2)c(=O)c2c3c(sc21)CCCCC3	-14%
CCC(C)C(NC(N)=O)C(=O)Nc1ccc(C)c(Cl)c1 (stereo not drawn)	-20%
Cc1cc(C#N)c(C)n1-c1cc(C(F)(F)F)ccc1N1CCOCC1	2%
CCOc1ccc(-c2nc(CSCC(=O)N3CCN(c4cccc(OC)c4)CC3)c(C)o2)cc1	-12%
COc1ccccc1N1CCN(C(=O)c2ccc3c(=O)n(Cc4ccco4)c(=S)[nH]c3c2)CC1	-6%
C=CCNC(=O)c1ccc2nccnc2c1	4%
Cc1ccc(C(=O)Nc2ccc(OCc3cc(=O)n4c(C)csc4n3)cc2)cc1	-2%
O=[N+]([O-])c1cc([N+](=O)[O-])c(Oc2ccccc2F)cc1NN1CCCCC1	-3%
COc1cc(/C=C2/SC(=O)NC2=O)ccc1OCc1ccccc1	16%
O=C(NCc1ccncc1)c1cn(-c2ccccc2)nc1-c1cccnc1	2%
CCC(C)NC(=O)CSc1nc2c(sc3ccccc32)c(=O)n1CCc1ccccc1 (stereo not drawn)	17%
Cc1nc2nc(SCc3ccccc3)[nH]n2c(=O)c1CCC(C)C	-17%
COc1ccc(OC(=O)Cc2cccc3ccccc23)cc1	-17%
Cc1ccc(S(=O)(=O)N(c2nc(N(C)C)nc(N(C)C)n2)n2cnnc2)cc1	-7%
CCC(C)NC(=O)c1ccc2nc(-c3ccc(OC)c(OC)c3)c(-c3ccc(OC)c(OC)c3)nc2c1 (stereo not drawn)	9%
O=C(Nc1ccc(Oc2cccnc2)cc1)c1cccc([N+](=O)[O-])c1	5%
COCCNC(=O)COc1ccc(Br)cc1Cl	1%
N=c1c(C(=O)NCCN2CCOCC2)cc2c(=O)n3ccccc3nc2n1CCc1ccccc1	-4%
CCOC(=O)CCc1c(C)c2c(C)nn(-c3ccccc3)c2[nH]c1=O	-11%
CCCOc1ccc(C2C(C(=O)OC)=CN(CCOC)C=C2C(=O)OC)cc1	4%
Cc1cccc(OCC(=O)Nc2ccc(N3CCN(C(=O)c4ccccc4)CC3)cc2)c1	0%
CCN(Cc1ccccc1)C(=O)c1cc(S(=O)(=O)N2CCOCC2)ccc1N1CCCC1	-7%
CCc1nc2c(c(=O)c3ccccc3n2C)c(=O)n1C1CCCCCC1	-17%
CC(NC(=O)c1ccc(F)cc1)C1CC2CCC1C2 (stereo not drawn)	7%
CCC(C)(C)NC(=O)C(c1ccc(OC)cc1)N(C(=O)CCC(=O)Nc1cc(C)on1)c1ccc2c(c1)OCO2 (stereo not drawn)	5%
C=CCN(C(=O)c1csnn1)C(C(=O)NC1CCCCC1)c1ccc(F)cc1 (stereo not drawn)	1%
O=C1CCC(=O)N1OCCOc1ccc2c(c1)CCC2	24%
CCOC(=O)c1ccccc1NC(=O)CSc1ncc(CO)n1Cc1ccc(C)cc1	7%
COc1ccccc1NC(=O)Cc1nnc(SCC(=O)c2ccc(F)cc2)n1C	4%
COc1cc(NC(=O)c2cc(-n3cnnc3)ccc2Cl)cc(OC)c1	0%
C[C@H](NC(=O)c1nc[nH]c1C(=O)N[C@@H](CCCCNC(=O)OC(C)(C)C)C(=O)OC(C)(C)C)C(=O)OC(C)(C)C	-15%
O=C(NCc1ccccc1)C(c1cccnc1)N(C(=O)c1ccccn1)c1cccc(F)c1 (stereo not drawn)	-8%
FC(F)(F)c1cccc(NCc2n[nH]c(=S)n2C2CCCCC2)c1	-8%
Cc1nn(C)cc1C(C(=O)NC1CCCCC1)N(C(=O)Cc1cccs1)c1ccc(F)cc1 (stereo not drawn)	11%
Cc1ccc(C(=O)OC(C)C(=O)NC(C)CCc2ccccc2)o1 (stereo not drawn)	5%
CCC(=O)N1c2ccc(S(=O)(=O)N3CCCC3)cc2CC1C (stereo not drawn)	23%
CCC(C)N(C(=O)COc1ccc(Cl)c2cccnc12)C1CCS(=O)(=O)C1 (stereo not drawn)	-11%
O=C(O)CCC(=O)Nc1cccc(C(=O)Nc2ccc(Br)cc2)c1	5%
CC1CN(CCOc2ccc(Cl)cc2Cl)CC(C)O1 (stereo not drawn)	-7%
Cc1ccsc1CN(C)Cc1nc(C2CC2)no1	-8%
CC(C)Nc1ccc(C(CC(N)=O)NC(=O)c2ccccc2)cc1[N+](=O)[O-] (stereo not drawn)	?
O=C(CSc1nnc(N2CCOCC2)n1-c1cccc(F)c1)N1CCN(c2ccccn2)CC1	-3%
Cn1c2ccccc2c2nnc(N/N=C/c3ccc(O)cc3)nc21	-26%

These rows are one share of the data. The share of hits here may be higher or lower than overall.
